BJeLR viability: kills HRASV12-expressing BJeLR cells; BJeLR (HRASV12) viability, CellTiter-Glo ATP luminescence, 48 h; reference of the scale not given here; inhibition, % (test concentration not listed); 0.17% of 300,000 active; AID 1554;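 active = replicate mean above 50%; inconclusive = above 50% but judged a plate artefact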;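 also: 50 nL library stock added to about 25 µL; numbers are from one replicate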
ugtP null kill: compounds lethal to S. aureus RN4220 ugtP deletion mutant | OD600 growth, 16 h; some inactives read as strong as hits | growth inhibition, % (test concentration not listed) | 0.54% of 330,000 active;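 active = z-score under -3 and OD600 up to 0.15 on both plates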;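 also: plate controls were untreated wells for no effect and antibiotic for full effect; wells of about 80 µL received 100 nL stock; the first replicate is given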
Sa RN4220 lethal: S. aureus RN4220 growth inhibition | AID 1259311 | OD600, 16 h | inhibition, % (test concentration not listed) | 0.33% of 330,000 active;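 active = z-score of -3 or lower and OD600 up to 0.18 on both plates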;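 also: plate controls were untreated cells for no effect and reference antibiotic for full effect; stock transfer was 100 nL into about 80 µL; one replicate is shown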
Autofluor counter: counter-screen for toxin protease inhibitors: compound fluorescence; compound autofluorescence counterscreen, microsphere flow cytometry; stronger effect = higher value; fluorescence intensity (concentration not given with the values); 3.1% of 360,000 active;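 active = at least 3 SD above the mean of all compounds, about 16000 in these data; inconclusive = too few beads counted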;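 also: 100 nL of 1 mM stock went into each well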
PrP UTR inh: suppresses PrP 5' UTR mRNA reporter expression | cell-based PrP 5' UTR mRNA reporter, plate reader | 0.35% of 340,000 active | inhibition, % (concentration not given with the values);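 active = every replicate at 50% or more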;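 also: 0 = median of the neutral control wells; tested in H4 reporter cells; numbers are from one replicate; inactives centre near -14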
Mtb hypoxia rep: reduces hypoxia-regulated biosensor signal in M. tuberculosis; M. tuberculosis hypoxia-regulated fluorescent reporter, fluorescence; AID 1159583; fluorescence inhibition, % (concentration not given with the values); 0.1% of 300,000 active;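 active = 35 to 45% if threefold the growth effect, above 45% if 1.5-fold the growth effect; inactive = the rest, general growth blockers included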;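 also: wells of about 50 µL received 100 nL stock; 0% = vehicle wells and 100% = reference inhibitor wells; whole bacteria with a GFP reporter of the hypoxia response; strong numbers were not always called active; many hits fall short of the cut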
Mtb hypoxia rep growth: further read-out of Mtb hypoxia rep, marked with its call; growth inhibition, %; measured here: M. tuberculosis growth (absorbance);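 0% = vehicle and 100% = reference antibiotic; read after six days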
* hit, by the source's call; ? = inconclusive; / = no result given.

Below each compound: BJeLR viability | ugtP null kill | Sa RN4220 lethal | Autofluor counter | PrP UTR inh | Mtb hypoxia rep | Mtb hypoxia rep growth
#1 Cc1nc2cc3nc(C)sc3cc2s1
    -12 | -9 | 2.3 | 5386 | -58 | / | /
#2 Cc1ccc(S(=O)(=O)N=C(c2ccccc2)N(C)c2ccc(O)cc2)cc1
    / | 2 | 5.0 | / | / | -5 | 12
#3 COc1ccc(N=Nc2cnc(C)nc2-c2ccccc2)cc1
    9 | -14 | 5.3 | 2281 | -23 | / | /
#4 CCc1cccc(NC(=O)CCCN2C(=O)C(c3ccccc3)Oc3cccnc32)c1 (stereo unspecified)
    0 | 0 | -2.4 | 6695 | -24 | 1 | -1
#5 CCOC(=O)c1cc2c3ccccc3n(CC)c2nc1N
    2 | 4 | -1.4 | 2052 | 6 | / | /
#6 CCOc1ccc(-c2c(C(=O)N/N=C/c3cccs3)nnn2-c2nonc2N)cc1
    7 | / | / | 4378 | -5 | / | /
#7 Cc1cc(C)c2c(CC(=O)O)coc2c1
    1 | 0 | 6.2 | 2350 | -13 | 4 | -9
#8 CC(=NNC(=O)c1ccc(C)s1)c1cccnc1
    / | 8 | 6.1 | / | / | 9 | -2
#9 N#C/C(=C/Nc1ccccc1C(=O)O)C(N)=O
    -3 | 7 | 6.2 | 3664 | -16 | 15 | 7
#10 COCC1CCN(C(=O)C2CCC(=O)N(CC3CCCCC3)C2)CC1 (stereo unspecified)
    -3 | 6 | 0.5 | 5694 | -4 | -3 | 0
#11 N#Cc1nc(COc2ccc(Cl)cc2Cl)oc1N1CCN(c2ccccc2)CC1
    -9 | -16 | 3.0 | 11299 | -4 | 0 | 8
#12 CCC1CN(C(=O)N2CCC(C(=O)Nc3ccccc3F)CC2)c2ccccc2O1 (stereo unspecified)
    -6 | 15 | 5.5 | 4668 | -19 | 9 | -6
#13 COC(CNC(=O)c1ccc2c(c1)nc(C)n2-c1ccc(F)c(F)c1)OC
    -20 | 12 | 3.7 | 22581* | -4 | 6 | 1
#14 O=C(CCCn1c(SCc2cc(=O)n3cc(Cl)ccc3n2)nc2ccccc2c1=O)NCC1CCCO1 (stereo unspecified)
    -2 | 10 | 3.8 | 4488 | -15 | 0 | -4
#15 O=C(O)c1cccc2c1Oc1ccccc1S2(=O)=O
    / | 5 | 3.3 | 3769 | -11 | 2 | 8
#16 COc1cc(C=NNc2nc(-c3ccc(S(=O)(=O)N(C)C)cc3)cs2)ccc1O
    / | 27 | 16 | / | / | -5 | 9
#17 CC(C)(C)SCCNC(=O)c1ccc(CN2CCc3ccccc3C2)cc1
    3 | 9 | 1.9 | 4148 | -40 | 12 | 6
#18 CC[C@@]12C(=O)N(c3ccc(C)cc3)C(=O)N1[C@H](c1ccc(OC)cc1)[C@@H]1C(=O)N(C(C)(C)C)C(=O)[C@@H]12
    2 | / | / | 3983 | -6 | / | /
#19 CCOc1cc2c(cc1OCC)-n1cccc1C(c1ccccc1OC)NC2 (stereo unspecified)
    -1 | 3 | 0.3 | 4092 | -10 | 8 | -2
#20 COc1cc(-c2ccc(=O)[nH]n2)ccc1OC(F)F
    -3 | 9 | 6.9 | 4438 | 35 | 7 | 10
#21 Cn1nc(C(=O)Nc2ccc(Br)cc2)cc1C(=O)Nc1ccc(Br)cc1
    -14 | 3 | 2.3 | 2901 | -23 | 12 | 5
#22 CCC(=O)Nc1cc(=O)[nH]c2ncnn12
    11 | 4 | 2.9 | 3182 | -20 | 11 | 3
#23 COc1cc(Cl)c(C)cc1NC(C)C(=O)Nc1cc(C(F)(F)F)ccc1N1CCOCC1 (stereo unspecified)
    1 | -4 | -5.1 | 2503 | -16 | -1 | 2
#24 COc1ccc(-c2nnn(CC(=O)N(Cc3ccccc3Cl)C(C(=O)NCC3CCCO3)c3ccco3)n2)cc1 (stereo unspecified)
    12 | -1 | 7.7 | 20046* | -20 | -2 | 7
#25 COc1cc(-c2cc(C(=O)NCc3ccco3)c3ccccc3n2)cc(OC)c1OC
    1 | 10 | -0.9 | 3582 | -18 | -3 | 6
#26 CN(CCc1ccccn1)C(=O)c1cccnc1Oc1ccc(Cl)cc1
    1 | -1 | 0.3 | ? | -8 | -10 | 10
#27 CCOc1ccc(CCN2C(=O)c3ccc(C(=O)O)cc3C2=O)cc1OCC
    -4 | 1 | -4.2 | 4448 | -19 | 5 | 3
#28 CCN1CCN(C/C(C)=C/c2ccccc2)CC1
    -3 | 1 | 2.7 | 3483 | -28 | -2 | -3
#29 COc1ccc(OC)c(NC(=O)c2cc(S(=O)(=O)N(C)C)ccc2N2CCCC2)c1
    -10 | 4 | 0.9 | 6993 | -3 | 5 | 6
#30 Cc1cc(Cl)ccc1NC(=S)NCCCN1CCCC1=O
    0 | 4 | 6.3 | 2199 | -13 | 5 | 5

Below each compound: BJeLR viability | ugtP null kill | Sa RN4220 lethal | Autofluor counter | PrP UTR inh | Mtb hypoxia rep | Mtb hypoxia rep growth
#31 CCOC(=O)c1cccc(NC(=O)c2cc3ccccc3o2)c1
    2 | -3 | -3.8 | 3322 | -63 | 0 | -1
#32 COC(=O)Cn1cccc1C(=O)c1ccccc1
    -6 | -3 | 5.5 | 10349 | -34 | 8 | 10
#33 O=C(NNC(=S)Nc1ccccc1Cl)c1ccccc1Br
    2 | -7 | -1.2 | 6515 | -56 | -9 | 4
#34 CCOC(=O)CSc1nc(N2CCOCC2)c2c(c1C#N)CC(C)(C)N(C)C2
    -9 | 5 | 1.8 | 5326 | -40 | 3 | 13
#35 O=C(/C=C/c1ccc(Cl)cc1Cl)OCC(=O)N1CCCC1
    / | 2 | 3.4 | 3523 | 2 | 4 | 10
#36 COc1cc(/C=N/Nc2nc(=O)[nH]nc2C)ccc1O
    1 | / | / | 4329 | -1 | / | /
#37 COc1ccc(Cl)cc1NC(=O)c1ccoc1C
    5 | -4 | -11 | 2482 | -7 | 9 | 4
#38 Cc1cc(=O)nc2c3ccccc3n(CC(=O)Nc3ccccc3Br)n12
    -5 | 2 | 2.3 | 14385 | -6 | 3 | 2
#39 CCCCn1c(N)c(N(Cc2ccccc2OC)C(=O)C(C)Oc2ccc(Cl)cc2)c(=O)[nH]c1=O (stereo unspecified)
    -6 | -4 | -3.1 | ? | 9 | 2 | 3
#40 CCCSc1ccc(C(=O)Nc2ccc(F)cc2F)cn1
    7 | 7 | -3.0 | 2678 | -30 | -10 | 5
#41 Nn1cnnc1N/N=C/c1ccc(Cl)c([N+](=O)[O-])c1
    -1 | / | / | 5006 | -21 | / | /
#42 CCN(CC1COc2ccccc2O1)C(=O)c1ccc(Cl)c(S(=O)(=O)N2CC(C)OC(C)C2)c1 (stereo unspecified)
    -8 | 5 | 2.7 | ? | -15 | 2 | 4
#43 COc1ccc(NC(=S)Nc2cccc([N+](=O)[O-])c2)cc1
    5 | 4 | 0.7 | 6014 | -22 | 8 | 2
#44 CC(C)(C)NC(=O)/C(=C\c1cccnc1)NC(=O)c1ccco1
    -1 | 5 | 2.5 | 2493 | -5 | -4 | 7
#45 O=C(CCN1C(=O)c2ccccc2C1=O)Nc1ccc(-c2nc3ccccc3s2)cc1
    -4 | 7 | 7.0 | 2421 | -11 | 11 | 2
#46 CS(=O)(=O)N1CCN(C(=O)CSc2ccccc2)CC1
    -4 | -2 | 0.0 | 3922 | -8 | -3 | 10
#47 Cc1nc2ccc(NS(=O)(=O)c3ccc(F)c(F)c3F)cc2s1
    / | -3 | 5.3 | 8888 | -1 | 2 | 8
#48 COc1ccc([C@H]2Cc3cccc(O)c3C(=O)O2)cc1O
    / | -8 | -11 | 3719 | -53 | 11 | 5
#49 Cc1ccc(NC(=O)CSc2nnc(Cn3cnc4ccccc43)o2)cc1
    -1 | 1 | 6.1 | 3392 | -15 | 1 | 7
#50 CN(C)CCNC(=O)C(=O)Nc1cc2c3c(c1)CCN3C(=O)CC2
    3 | 3 | 0.5 | 4482 | -11 | 13 | 4
#51 O=C(NCc1ccccc1F)C1CCCN1S(=O)(=O)c1ccc(Cl)cc1 (stereo unspecified)
    7 | 3 | -0.4 | 3750 | -9 | -11 | 2
#52 O=C(COC(=O)c1ccc(Br)c(S(=O)(=O)N2CCOCC2)c1)NC1CC1
    / | 2 | 0.2 | 3981 | -14 | 11 | 2
#53 CC(C)(C)NC(=O)C(=O)N/N=C/c1cccs1
    2 | / | / | 6688 | -35 | / | /
#54 CC(C)C(CO)Nc1nc(NCc2ccc(S(N)(=O)=O)cc2)c2ncn(C(C)C)c2n1 (stereo unspecified)
    / | -10 | 3.1 | / | / | -2 | 13
#55 CCOc1ccc(C=C2C(=O)NC(=S)NC2=O)cc1OCC
    / | 2 | 3.3 | 2823 | 0 | -2 | -2
#56 COc1ccc(NC(=S)Nc2cccc(C)n2)cc1
    0 | -9 | 0.1 | 6548 | -48 | 10 | 4
#57 Cc1ccc(C)c2[nH]c(=O)c(CCNC(=O)C(C)(C)C)cc12
    2 | 12 | 5.1 | 5637 | -36 | -8 | 7
#58 COc1ccc2[nH]c(=O)c(CN(Cc3cccs3)S(=O)(=O)c3cccc4nsnc34)cc2c1
    52* | -10 | 7.9 | 10422 | -45 | 0 | 1
#59 CCn1c(SCC(=O)NCc2cccs2)nnc1-c1ccncc1
    2 | 4 | 5.1 | 10383 | -24 | 5 | 2
#60 CC(C)Cn1c(-c2ccccc2)nc2ccccc2c1=O
    3 | 10 | 3.5 | 4030 | -5 | / | /

Below each compound: BJeLR viability | ugtP null kill | Sa RN4220 lethal | Autofluor counter | PrP UTR inh | Mtb hypoxia rep | Mtb hypoxia rep growth
#61 CCN1CCN(C(=O)c2cc3ccc(OC)cc3[nH]2)CC1
    4 | 8 | 4.4 | 4045 | -16 | 5 | 3
#62 Cc1ccc2c(c1)cc1c(=O)n(CC(=O)NCc3ccccn3)nc(C)n12
    0 | / | / | 5918 | -32 | / | /
#63 O=C(COc1ccccc1)NC1C(=O)N2C(C(=O)O)=C(Cl)CSC12 (stereo unspecified)
    2 | 101* | 101* | / | -11 | / | /
#64 O=S1(=O)C=C(N2CCCCC2)c2ccccc21
    -2 | 0 | 6.1 | 3102 | -9 | / | /
#65 COC(=O)c1ccc(C=NNC(=O)CC(=O)NC2CCCCC2)cc1
    / | -2 | 1.1 | / | / | 6 | -9
#66 O=C(NN=Cc1ccc2c(c1)OCO2)c1cc(-c2ccccc2Cl)nc2ccccc12
    / | 7 | -1.7 | / | / | 4 | 6
#67 Cc1ccc(NC(=O)Cn2cnc(C(=O)Nc3ccc(C)c(C)c3)n2)cc1C
    / | -1 | 2.3 | 3836 | -11 | -8 | -3
#68 COc1ccc(CNC(=O)[C@]2(C)CCC[C@@]3(C)C4CC[C@@]5(C)C[C@]4(CCC32)CC5=O)cc1 (stereo partly specified)
    / | 7 | 4.2 | 2972 | -12 | 15 | 10
#69 C=CCn1c(CCNC(=O)c2cccs2)nnc1SCC(=O)c1ccc(Br)cc1
    4 | -13 | 1.5 | 20927* | -36 | -2 | 11
#70 O=C(COc1cccc([N+](=O)[O-])c1)NN1C(=O)c2ccccc2C1=O
    0 | 5 | 5.8 | 2862 | -15 | 15 | 11
#71 CC(C)C12CN3CC(C(C)C)(CN(C1)C3c1cccnc1)C2=O (stereo unspecified)
    1 | -2 | 6.6 | 2860 | -38 | 4 | 3
#72 COc1ccc(Nc2ccc(Nc3ccc(OC)cc3)nn2)cc1
    5 | 1 | -1.2 | 1978 | -13 | -5 | -1
#73 COc1ccc(C)cc1S(=O)(=O)NCC(c1ccc2c(c1)OCO2)N1CCN(C)CC1 (stereo unspecified)
    4 | -1 | 2.0 | / | -5 | -2 | 3
#74 O=C(O)CCC(=O)CCC(=O)c1ccccc1
    -11 | -2 | 0.7 | 23543* | -37 | 2 | -5
#75 CCN1C=CC(=C2C(=O)c3ccccc3C2=O)C=C1
    30 | 3 | 5.1 | 17505* | 88* | 4 | 9
#76 c1ccc(-c2nc(-c3ccncc3)no2)cc1
    -6 | 6 | 5.3 | 2385 | -66 | / | /
#77 CC(=NNc1ccc2nncn2n1)c1ccc(Br)s1
    / | 2 | 1.5 | / | / | 9 | -7
#78 Cc1cc(C(=O)N/N=C/c2ccccc2)c(C)o1
    -10 | / | / | 3759 | -48 | / | /

Some entries already given, reduced to Mtb hypoxia rep and PrP UTR inh.
entry	molecule	Mtb hypoxia rep	PrP UTR inh
76	c1ccc(-c2nc(-c3ccncc3)no2)cc1	/	-66
77	CC(=NNc1ccc2nncn2n1)c1ccc(Br)s1	9	/
78	Cc1cc(C(=O)N/N=C/c2ccccc2)c(C)o1	/	-48

Screening data: PubChem, several laboratories
